# Bioassay records from PubChem BioAssay.
# HSV replic up = HSV replication enhancement. HSV replication augmentation in cells, fold increase. maximum fold increase. 220,000 tested, 0.005% active;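 active = peak rise of 1.5-fold or more in the series; tested in PC3 cells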;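 also: first round at 10 µM; read as green reporter fluorescence; hits show the peak of a series up to 25 µM; 1 = signal of infected wells without compound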
# PKD1 inh = blocks activity of human protein kinase D1 | AID 797 | Q15139 | inhibition, %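 (about 10 µM by stock and volumes)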 | PKD1 kinase fluorescence polarization assay | 200,000 tested, 0.056% active;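 active = inhibition of 50% or more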;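 also: controls were vehicle for no effect and a reference inhibitor for full effect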
# GALR2 agonist = agonists of human galanin receptor 2 (GALR2). GALR2-expressing cells, agonist activation read-out. activation, %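 (tested at 5 µM)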. 140,000 tested, 0.48% active. AID 803;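 active = above mean plus 3 SD of all compounds, about 5% in these data, not always enough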;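 also: 0% = vehicle buffer wells and 100% = reference agonist at full effect; tested in CHO reporter cells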
# Target sequence (O43603 whole entry, looked up): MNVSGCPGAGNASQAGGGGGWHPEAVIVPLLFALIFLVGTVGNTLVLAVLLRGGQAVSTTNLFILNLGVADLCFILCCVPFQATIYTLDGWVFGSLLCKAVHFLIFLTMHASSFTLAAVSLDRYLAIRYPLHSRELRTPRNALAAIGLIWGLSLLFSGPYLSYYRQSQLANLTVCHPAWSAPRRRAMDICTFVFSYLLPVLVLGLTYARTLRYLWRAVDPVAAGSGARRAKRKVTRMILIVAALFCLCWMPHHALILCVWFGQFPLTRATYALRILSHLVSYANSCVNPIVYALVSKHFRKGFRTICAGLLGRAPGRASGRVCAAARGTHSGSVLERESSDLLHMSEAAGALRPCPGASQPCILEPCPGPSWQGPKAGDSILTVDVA
# INS promoter inh = TRM-6 insulin promoter activity inhibition; 130,000 tested, 0.9% active; inhibition, % at 2 µM; TRM-6 cells (human fetal islet line), insulin promoter-eGFP reporter, imaging; reporter expression induced with tamoxifen; AID 1273;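 active = inhibition above the mean plus 3 SD, with well images judged a real hit on visual review, cut at about 60% in these data, passing the limit was not always enough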
# RGS16-Gao = RGS16-Galphao interaction regulator (human) | binding response (% of control), % at 10 µM | O15492+P09471 | 220,000 tested, 0.38% active | AID 1441 | bead-based flow cytometry RGS16-Galphao binding, fluorescence; actives lie on both sides;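 active = below 25% or above 175%, edge rows of some plates excepted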;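 also: Galphao activated by GDP with aluminum fluoride before binding; 100% = wells without compound and 0% = beads without RGS; some results beyond the cut were filed as inactive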
# Target sequence (O15492 whole entry, looked up): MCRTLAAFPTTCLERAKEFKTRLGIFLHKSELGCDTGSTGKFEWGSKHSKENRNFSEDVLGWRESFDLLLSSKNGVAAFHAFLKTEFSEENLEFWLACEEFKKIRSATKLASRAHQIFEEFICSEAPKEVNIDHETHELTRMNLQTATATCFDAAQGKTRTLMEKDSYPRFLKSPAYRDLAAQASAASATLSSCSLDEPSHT
# Target sequence (P09471 whole entry, looked up): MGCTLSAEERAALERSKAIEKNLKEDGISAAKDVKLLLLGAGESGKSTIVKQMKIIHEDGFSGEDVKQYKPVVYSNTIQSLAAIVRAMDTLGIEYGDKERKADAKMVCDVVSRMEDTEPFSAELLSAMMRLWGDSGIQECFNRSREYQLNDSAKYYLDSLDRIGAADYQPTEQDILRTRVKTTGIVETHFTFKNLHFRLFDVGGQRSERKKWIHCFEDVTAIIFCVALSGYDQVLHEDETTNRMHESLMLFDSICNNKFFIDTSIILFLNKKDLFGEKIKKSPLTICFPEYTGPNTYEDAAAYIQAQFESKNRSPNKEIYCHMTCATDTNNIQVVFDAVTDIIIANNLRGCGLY
# INS promoter inh cell count = recorded beside INS promoter inh, whose call it bears; normalized cell count, %; measured here: cell count, toxicity; reference of the scale not given here;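 cells exposed to compound for 48 h; stained nuclei by imaging scaled within each plate; lower means fewer cells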
# HSV replic up primary fold = second read-out of HSV replic up, no call of its own (marks repeat the call); fold increase; compound at 10 µM; measured here: primary screen fold increase 10 uM; tested in PC3 cells;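 GFP signal in the first replicate; 1 = infected wells without compound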
# The depositor's hits bear a star; i = inactive; x = no result given.
molecule	RGS16-Gao	INS promoter inh cell count	HSV replic up	PKD1 inh	INS promoter inh	GALR2 agonist	HSV replic up primary fold
CCN(CC)c1ccc(/C=C2\NC(=O)NC2=O)cc1	112	107	i	-1	-21	-0.8	0.98
Cc1ccc(S(=O)(=O)Nc2nc3ccccc3nc2NCC2CCCO2)cc1C (stereo not given)	101	x	i	x	x	x	0.92
CN(CC(=O)Nc1ccccc1C(F)(F)F)C(=O)CSc1nnnn1C	98	x	i	1	x	x	0.99
Oc1ccc(-c2csc(-c3ccccc3)n2)cc1O	96	75	i	11	-7	-2.9	0.71
COc1ccc(Cc2nn3c(-c4ccccc4OC)nnc3s2)cc1	103	116	i	0	-12	-2.6	0.86
CCCc1cc(=O)oc2c(C)c(OCC(=O)c3ccc(N4CCCC4)cc3)ccc12	99	x	i	1	x	-1.6	0.92
COc1ccccc1C(=O)Nc1ccc(C(=O)/C=C/c2cccs2)cc1	107	79	i	-8	-7	-1.6	0.87
Cc1cccc(C)c1N1CCN(C(=O)N2CCCCC2)CC1	105	x	i	-1	x	x	0.95
Cc1cccc(NC(=O)C2Cc3ccccc3CN2C(=O)OCc2ccccc2)c1C (stereo not given)	12*	57	i	-6	-9	-0.7	0.94
COc1ccc([N+](=O)[O-])cc1NC(=O)COC(C)=O	98	x	i	-3	x	x	0.92
COc1ccc(-c2nnn(CC#N)n2)cc1OC	100	165	i	-1	31	-1.4	0.82
Cc1ccc(Cc2nc(-c3cccc(C)c3)no2)cc1	101	106	i	-2	55	0.4	0.93
COCCNC(=S)N/N=C(\C)c1ccc(-n2ccnc2)cc1	105	77	i	-16	28	-2.5	0.98
N#CC(=NCc1cccnc1)C1=C(O)c2ccccc2C1=O	108	x	i	x	x	x	0.99
COc1ccc(C(=O)/C=C/c2ccc(OC)c(COc3ccccc3F)c2)cc1	104	81	i	-20	0	-0.1	0.85
c1ccc(-c2nc(NCCCn3ccnc3)c3ccccc3n2)cc1	101	99	x	-4	43	x	x
O=C(NNC(=O)C12CC3CC(CC(C3)C1)C2)c1cnccn1	35	44	i	2	26	-1.1	1
Cc1onc(-c2ccccc2)c1C(=O)Nc1sc2c(c1C#N)CCC(C)C2 (stereo not given)	99	112	i	6	-21	0.9	0.74
COC(=O)c1cccc(-n2c(CCC(=O)O)ccc2-c2cccs2)c1	107	x	i	x	x	x	1
O=C1CNC(=S)N1CCc1ccc(O)c(O)c1	99	x	i	x	x	x	0.96
Cc1cc(C(=O)COC(=O)c2ccc[nH]c2=O)c(C)n1-c1ccc(F)cc1	100	108	i	-4	0	0.4	1.1
Clc1ccc(-c2cc(-c3nnc4n3CCCCC4)c3ccccc3n2)cc1	105	156	i	-1	-9	-0.3	0.75
CNc1cc(N2CCCC2)ccc1[N+](=O)[O-]	92	x	i	-1	x	x	0.88
C#CCNC(=O)C1=C[C@H](c2coc3ccccc3c2=O)[C@@H](CCCO)[C@H](OCC)O1	102	x	i	-1	x	x	0.97
CC(C(=O)Nc1cccc([N+](=O)[O-])c1)N1CCN(C/C=C/c2ccccc2)CC1 (stereo not given)	102	130	i	8	-12	-1.2	0.95
Cc1nnc(NC(=O)CCCCCN2C(=O)C3C4C=CC(C4)C3C2=O)s1 (stereo not given)	100	91	i	-10	29	-1.1	0.95
Cc1ccsc1C(=O)NNC(=O)C1CCCCC1C(=O)O (stereo not given)	99	105	i	4	25	-1.9	0.96
CCCn1c(=S)[nH]c2cc(Cl)ccc21	98	x	i	x	x	x	0.86
CN(C)C(CNS(=O)(=O)c1ccc(Cl)cc1)c1cccnc1 (stereo not given)	104	x	i	5	x	-3.4	0.91
O=C(c1ccc(Br)o1)N1CCN(c2ccc3nnc(-c4ccccc4)n3n2)CC1	102	x	i	-5	x	1.7	0.62
CSc1nc(C)cc(-n2ccc(=O)[nH]c2=O)n1	97	86	i	-3	16	-0.6	1
COC(=O)c1noc(C)c1-c1ccnn1C(=O)c1ccc(Cl)cc1	97	x	i	x	x	x	1.1

# Reprinted from the part before: two entries; new compounds follow.
molecule	RGS16-Gao	INS promoter inh cell count	HSV replic up	PKD1 inh	INS promoter inh	GALR2 agonist	HSV replic up primary fold
CSc1nc(C)cc(-n2ccc(=O)[nH]c2=O)n1	97	86	i	-3	16	-0.6	1
COC(=O)c1noc(C)c1-c1ccnn1C(=O)c1ccc(Cl)cc1	97	x	i	x	x	x	1.1
CC(C)CNC(=O)c1coc(=O)c(Br)c1	104	88	i	2	-45	0.7	0.5
O=C(c1ccccc1)N1CCN(S(=O)(=O)c2ccccc2)CC1	100	x	i	x	x	x	0.83
COc1ccc(C(=S)Nc2ccc(C)cc2)cc1	100	x	x	5	x	-2.8	x
O=C(Nc1ccc(F)cc1)NC1CCCCC1	106	43	i	-12	-400	-0.5	1.1
COc1ccccc1C(=O)Nc1cccnc1	99	x	i	4	x	x	1.1
COc1cc(C2c3sc(=O)[nH]c3SC3C(=O)N(c4ccc(Br)cc4)C(=O)C32)ccc1O (stereo not given)	95	x	i	x	x	x	0.94
Cc1cc2oc(=O)cc(CN3CCN(Cc4ccc5c(c4)OCO5)CC3)c2cc1C	98	67	i	-6	17	-0.4	1
CCOc1ccc(C(=O)NC(C(=O)NCC2CCCO2)C(C)C)cc1 (stereo not given)	99	x	i	x	x	x	1.2
COc1ccc(NC(=O)c2ccccc2NS(=O)(=O)c2ccc(C)cc2)c([N+](=O)[O-])c1	100	112	i	-8	0	-0.3	0.91
O=[N+]([O-])c1ccc2c(c1)nc1n2CCN(CC2CCCO2)C1 (stereo not given)	99	x	i	1	x	x	0.87
COc1ccc(C(=O)Nc2ccc(CN3CCCCC3)cc2)cc1	104	x	i	-5	x	x	1
C=CCN1C(=O)/C(=C2/Sc3ccc(OC)cc3N2C)SC1=Nc1ccccc1	110	x	i	-4	x	x	0.99
O=C(O)c1ccccc1C(=O)NC1Cc2ccccc2C1	96	x	i	x	x	x	1
O=C(c1ccc(NC2=NC3CS(=O)(=O)CC3S2)cc1)N1CCN(Cc2ccccc2)CC1 (stereo not given)	101	x	i	-6	x	-0.7	0.94
O=C(CN1CCCC1)Nc1ccc(OCc2ccccc2)cc1	105	x	i	0	x	x	0.9
O=C(O)c1ccccc1C(=O)Nc1ccc(Oc2cccc(C(F)(F)F)c2)nc1	103	x	i	x	x	x	0.7

# Two entries drawn at random from those above, as already listed:
molecule	RGS16-Gao	INS promoter inh cell count	HSV replic up	PKD1 inh	INS promoter inh	GALR2 agonist	HSV replic up primary fold
COc1ccc(NC(=O)c2ccccc2NS(=O)(=O)c2ccc(C)cc2)c([N+](=O)[O-])c1	100	112	i	-8	0	-0.3	0.91
O=C(O)c1ccccc1C(=O)NC1Cc2ccccc2C1	96	x	i	x	x	x	1

# Continuation.
molecule	RGS16-Gao	INS promoter inh cell count	HSV replic up	PKD1 inh	INS promoter inh	GALR2 agonist	HSV replic up primary fold
OC(CNC1Cc2ccccc2C1)COc1ccc(F)cc1 (stereo not given)	88	x	i	x	x	x	0.94
CS(=O)(=O)N(CC(=O)Nc1ccc2c(c1)OCO2)c1ccccc1	65	x	i	-16	x	-1.1	1
NC1=NC(c2ccccc2)=NC1(NC(=O)c1ccccc1)C(Cl)Cl (stereo not given)	96	x	i	x	x	x	0.92
O=C(CCn1c(=O)oc2ccccc21)N(Cc1ccccc1)c1ccccc1	102	x	i	-5	x	x	0.85
Cc1ccc(CO/N=C/c2c(O)cc(C)oc2=O)cc1	99	102	i	2	-38	x	1
O=C(Nc1ccccn1)c1cc(-c2cccnc2)nc2ccc(Br)cc12	103	x	i	8	x	3.9	1
O=C(O)c1ccc(COc2c(F)c(F)cc(F)c2F)o1	98	86	i	0	21	-1.3	0.93
O=C(NC(NC(=S)Nc1ccccc1C(=O)O)C(Cl)(Cl)Cl)c1ccco1 (stereo not given)	114	56	i	-9	-31	-1.8	1.1
COC(=O)c1ccc(Cl)c(NC(=O)CN(c2ccc3c(c2)OCO3)S(C)(=O)=O)c1	104	79	i	-6	33	-0.5	0.97
Cc1ccc(CN2C(=O)C3CCCN3c3ccc(S(=O)(=O)N4CCOCC4)cc32)cc1 (stereo not given)	79	92	i	-5	-36	-1.6	0.93
COc1ccc(-c2nnc(Nc3nc4c(OC)cccc4s3)o2)cc1	97	92	x	-1	60	-1.6	x
Cn1cnnc1SCC(=O)N1CCN(C(=O)c2ccco2)CC1	99	93	i	-2	-8	x	1.1
COc1c2ccoc2nc2c(OC)c(OCC(OC(C)=O)C(C)(C)O)ccc12 (stereo not given)	96	x	x	16	x	x	x
Nc1cc(N2CCCC2)c(Cl)cc1[N+](=O)[O-]	114	107	i	-6	-100	x	0.88
N/C(COc1cc(Cl)cc(Cl)c1)=N\O	96	x	i	x	x	x	0.92
CCC(=O)OCCNc1cc(Sc2nc3ccccc3[nH]2)c2nonc2c1[N+](=O)[O-]	74	15	i	-5	-37	4.1	0.53
CC(=O)c1cccc(N(CC(=O)Nc2ccccc2F)S(C)(=O)=O)c1	101	x	i	-1	x	x	0.92
Cc1c(C(=O)Nc2c(F)cccc2F)sc2ncnc(N3CCN(c4ccccc4)CC3)c12	103	128	x	-8	36	x	x
Cc1ccc(S(=O)(=O)CCC(=O)OCC(=O)NCc2ccc(Cl)cc2)cc1	100	87	i	3	-8	x	0.96
CN1CCC(OC(=O)c2ccc(Cl)cc2Cl)CC1	105	x	i	6	x	x	0.89
Cc1ccc(O)c(-c2cc(C(F)(F)F)[nH]n2)c1	91	63	i	8	41	-1.6	0.94
Cc1ccc(SCc2cc(=O)n3ccsc3n2)c(C)c1	97	x	i	-3	x	-0.5	1
CCCCCCC(=O)Oc1cccc(N2C(=O)C3CCCCC3C2=O)c1 (stereo not given)	102	131	i	-9	-50	x	1
Cc1ccccc1NS(=O)(=O)c1cc(S(C)(=O)=O)ccc1C	78	101	i	-18	27	-0.3	0.93

# A second format for some results above.
Cc1ccc(S(=O)(=O)CCC(=O)OCC(=O)NCc2ccc(Cl)cc2)cc1
  RGS16-Gao = 100; INS promoter inh cell count = 87; HSV replic up = i; PKD1 inh = 3; INS promoter inh = -8; GALR2 agonist = x; HSV replic up primary fold = 0.96

CN1CCC(OC(=O)c2ccc(Cl)cc2Cl)CC1
  RGS16-Gao = 105; INS promoter inh cell count = x; HSV replic up = i; PKD1 inh = 6; INS promoter inh = x; GALR2 agonist = x; HSV replic up primary fold = 0.89

Cc1ccc(SCc2cc(=O)n3ccsc3n2)c(C)c1
  RGS16-Gao = 97; INS promoter inh cell count = x; HSV replic up = i; PKD1 inh = -3; INS promoter inh = x; GALR2 agonist = -0.5; HSV replic up primary fold = 1

Cc1ccc(O)c(-c2cc(C(F)(F)F)[nH]n2)c1
  RGS16-Gao = 91; INS promoter inh cell count = 63; HSV replic up = i; PKD1 inh = 8; INS promoter inh = 41; GALR2 agonist = -1.6; HSV replic up primary fold = 0.94

# Going on with the list:
molecule	RGS16-Gao	INS promoter inh cell count	HSV replic up	PKD1 inh	INS promoter inh	GALR2 agonist	HSV replic up primary fold
CCOc1c2ccc(C(=O)NCc3ccc4c(c3)OCO4)cc2nn1CCOC	99	x	i	0	x	-4.6	0.73
COc1cccc2cc(C(=O)NCc3ccco3)c(=Nc3ccc(C(=O)O)cc3)oc12	101	146	i	0	23	-0.1	0.88
CCn1cc(C(=O)O)c(=O)c2cc(F)c(N/N=C/c3ccccc3)cc21	102	91	i	15	53	-1.6	0.88
CC(=O)Nc1ccc(Sc2ccccc2C(=O)Nc2ccc(F)cc2)cn1	101	84	i	-6	-31	x	0.97
CCNS(=O)(=O)c1ccc(NC(=O)CC(C)c2ccccc2)cc1 (stereo not given)	100	116	i	-4	-90	x	0.94
Cc1nc2ccccc2c2oc(C(=O)NCC3CCCO3)cc12 (stereo not given)	105	124	i	-4	28	-0.9	1
CC(C)(C)n1nnnc1SCC(=O)Nc1nn(-c2ccccc2)nc1C(N)=O	109	137	i	-4	-25	x	1
Cc1cc(C)c(NC(=O)CSc2nc(COc3ccccc3)nc3ccccc23)c(C)c1	105	103	i	-8	0	-1.1	1
Nc1cc(Cl)ccc1Oc1ccc2ccccc2c1	104	67	i	0	-19	-2.7	0.92
O=C(Nc1ccc(-c2csc(Nc3ccccc3)n2)cc1)c1cccc(C(F)(F)F)c1	122	x	i	x	x	x	0.45
CCOc1ccc(C2c3c(oc4cc(C)c(C)cc4c3=O)C(=O)N2CCCN2CCOCC2)cc1 (stereo not given)	101	x	i	0	x	-3.1	1.1
Cn1nc(CC(=O)NC2CCCCCCCCCCC2)c2ccccc2c1=O	92	95	x	-7	-30	-0.6	x
CCc1ccc(N2C(=O)CC(N3CCN(Cc4ccc5c(c4)OCO5)CC3)C2=O)cc1 (stereo not given)	107	131	i	0	28	x	0.88
CCOC(=O)c1cnc2c(-c3ccccc3)cnn2c1C	102	83	i	-2	-27	x	0.94
